CSC inhib – cancer stem cell inhibition; AID 2717; inhibition, % at 7.5 µM; cancer stem cell-like cells viability, luminescence; actives 1.1% (n = 300,000);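 active = mean at 75% or more and at least half the replicates too; tested in HMLE shEcad cells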;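 note: 0% = median of negative and 100% = median of positive control wells; the first replicate is given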
HIV Env fusion – inhibitors of HIV Env-mediated cell fusion. inhibition, % at 12.3 µM. actives 1.1% (n = 360,000). HeLa-JRFL Env/CEM21 cell fusion, luciferase;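 active = mean replicate inhibition score of at least 50 and every replicate individually at or above 50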;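 note: 0% = plate neutral controls and 100% = maraviroc near 300 nM; one replicate is shown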
MT1-MMP act inh – inhibitors of human MT1-MMP activation. actives 0.061% (n = 360,000). GFP/RFP ratio change, % at 20 µM. P50281. AID 651647. HT1080 RFP-PRO-GFP cells, GFP/RFP ratio fluorescence, overnight; percent of plate control window, DMSO zero;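 active = GFP/RFP ratio change of at least 30% with cell ATP level not reduced by more than half and red fluorescence within 50% of control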; note: strong numbers were not always called active
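Assay system: HT1080 RFP-PRO-GFP cells. Benchmarks: DMSO vehicle wells and RFP-L50D-GFP reporter cell wells. Times: overnight cell settling, then overnight compound exposure, 37 °C, 5% CO2. Compound: 20 µM single dose, 1% DMSO. Read-out basis: GFP/RFP fluorescence ratio.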
eIF4H FP inh – inhibitors of RNA binding by human eIF4H; inhibition, % at 35 µM; AID 2012; actives 0.94% (n = 290,000); eIF4H fluorescence polarization binding assay; Q15056;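 active = 50% or more with normal probe brightness, or confirmed in later tests; about a fifth of its hits are not listed in these tables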;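 note: calls also rest on retests at 20 µM and on dose response follow-up; 0% = protein and probe with vehicle and 100% = probe without protein; strong numbers were not always called active; many hits fall short of the cut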
Yeast UUG start – modulators of start codon recognition fidelity in yeast; S. cerevisiae UUG-firefly luciferase reporter, luminescence/redox ratio; activity score, % at 18.7 µM; actives 0.13% (n = 350,000); AID 602363;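 active = replicate mean at a twofold rise or more, about +100% in these data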;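 note: firefly luciferase made from a UUG start codon reports start codon fidelity; reporter light over untreated wells divided by growth signal over untreated wells; some hits fall short of that in this replicate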
PABP FP inh – blocks human PABP binding to poly(A) RNA; inhibition, % at 35 µM; fluorescence polarization; actives 1% (n = 290,000); P11940; AID 2014;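 active = 50% or more with normal probe brightness, or confirmed in later tests; about a fifth of its hits are not listed in these tables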;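 note: calls also rest on retests at 20 µM and on dose response follow-up; controls were probe without protein and protein plus probe with vehicle; some compounds called inactive have numbers as strong as hits; many hits fall short of the cut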
Target sequence (P11940 whole entry, looked up): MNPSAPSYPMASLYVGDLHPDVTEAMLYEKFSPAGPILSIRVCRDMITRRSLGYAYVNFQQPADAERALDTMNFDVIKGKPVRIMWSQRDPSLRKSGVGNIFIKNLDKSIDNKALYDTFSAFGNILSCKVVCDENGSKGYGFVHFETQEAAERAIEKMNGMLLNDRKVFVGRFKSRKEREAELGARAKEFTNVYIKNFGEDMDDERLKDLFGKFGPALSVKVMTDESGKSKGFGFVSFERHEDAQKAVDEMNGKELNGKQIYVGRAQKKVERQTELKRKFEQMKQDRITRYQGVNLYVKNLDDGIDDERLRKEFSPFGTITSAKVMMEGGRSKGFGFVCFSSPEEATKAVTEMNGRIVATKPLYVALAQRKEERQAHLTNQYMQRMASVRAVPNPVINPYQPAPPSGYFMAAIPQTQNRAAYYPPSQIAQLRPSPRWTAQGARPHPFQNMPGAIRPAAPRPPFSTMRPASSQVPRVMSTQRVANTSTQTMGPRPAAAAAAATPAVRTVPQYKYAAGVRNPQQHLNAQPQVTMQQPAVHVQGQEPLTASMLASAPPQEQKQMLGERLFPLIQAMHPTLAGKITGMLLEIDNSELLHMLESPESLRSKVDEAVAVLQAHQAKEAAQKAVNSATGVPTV
Rce1 inhib – yeast Ras-converting enzyme inhibition | yeast membranes, quenched prenylated peptide cleavage fluorescence | calls only | actives 0.27% (n = 290,000);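 active = fall in fluorescence gain of 50% or more versus controls, with final raw signal at or below 3038400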;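 note: plate controls were neutral control wells for no effect and wells lacking membranes for full effect; tested at 10 µM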
MT1-MMP act inh RFP – also measured in MT1-MMP act inh; calls as there; RFP signal change, %; measured here: RFP expression control read;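 0 = vehicle wells; hits needed this value within 50% of zero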
* marks the source's active call; other numbers are inactive results; i = inactive; nt = no result given; + = active, no number; & = joins results of further samples.

SMILES	CSC inhib	HIV Env fusion	MT1-MMP act inh	MT1-MMP act inh RFP	eIF4H FP inh	Yeast UUG start	PABP FP inh	Rce1 inhib
O=c1[nH]c(CSc2nnnn2-c2ccc(Cl)cc2)nc2ccccc12	5	1	-1	4	25	nt	3	i
COc1ccc(-n2nnc3c(=O)n(CC(=O)N4CCCc5ccccc54)cnc32)cc1	-18	10	1	-5	-13	2	-6	i
COc1cc2c(cc1NC(=O)c1cccc([N+](=O)[O-])c1C)oc1ccccc12	102*	nt	1	-4	-9	-23	-4	i
CCC(=O)Nc1ccc(C(=O)NNC(=O)c2cc([N+](=O)[O-])cc([N+](=O)[O-])c2)cc1	10	1	-1	4	1	2	1	i
CC(=O)c1cccc(NC(=O)c2ccc3c(c2)CCCC3)c1	9	-178	2	1	nt	-29	nt	i
N#CC1(NC(=O)COC(=O)c2ccccc2SCC(=O)N2CCCC2)CCCCC1	-19	-1	-1	-1	10	2	22	i
Cc1cccc(N(Cc2ccccc2)C(=O)Cc2ccc(S(=O)(=O)N3CCOCC3)s2)c1	13	5	0	-8	nt	8	nt	i
Cc1cc2c(cc1S(=O)(=O)CCC(=O)NC1CCCCC1C)OCC(=O)N2 (stereo not given)	8	-1	0	3	-9	-12	2	i
CCn1c(SCC(=O)NC2(C#N)CCCCC2)nc2ccccc2c1=O	-16	2	10	-1	nt	14	nt	i
COc1cccc(NC(=O)COC(=O)c2c3c(nc4ccccc24)CCC(C)C3)c1 (stereo not given)	19	-54	-7	-10	-2	-10	-2	i
Cc1nc(Nc2ccc(Cl)c(Cl)c2)sc1C(=O)Nc1ccccc1	88*	0	2	-11	-9	-9	3	i
Cn1c(=O)[nH]c(=O)c2c1nc(N/N=C/c1ccncc1)n2Cc1ccc(F)cc1	-30	-15	9	5	2	-6	-6	i
CCOC(=O)CCSc1nc(C)c2cc(OC)ccc2n1	-1	nt	-1	1	-12	-4	6	i
O=C(NCc1ccc(F)cc1)C1CCN(S(=O)(=O)c2ccc(Cl)cc2)CC1	-5	-13	1	-2	9	-4	3	i
CCOc1cc(CNCCSc2nnnn2C)cc(Br)c1OCc1ccc(F)cc1	11	nt	-2	-7	-7	nt	1	i
O=C(NC(=O)c1cc([N+](=O)[O-])ccc1Cl)C1=C(N2CCCC2)COC1=O	nt	-24	0	4	nt	-12	nt	nt
Cc1ccc(S(=O)(=O)N2CCN(c3ccccc3)CC2)cc1C(N)=O	-2	10	4	-1	-4	nt	18	i
C=CCn1c(SCC(=O)NC2CCCC2)nc2sc(C)cc2c1=O	13	2	4	0	nt	-4	nt	i
CCOc1ccc(Cl)cc1/C=C1/C(=O)ON=C1C	nt	21	2	5	-3	-22	8	i
CCOc1ccccc1NC(=O)CC1NCCNC1=O (stereo not given)	-10	-11	-3	6	-3	-12	-4	i
Cn1c2ccccc2c2nnc(SCC(=O)NCc3ccoc3)nc21	nt	3	3	3	8	nt	13	i
O=C(Cn1cnc2ccccc2c1=O)N1CCN(Cc2ccccc2)CC1	-6	-316	-2	-2	-5	-15	-10	i
C=CCc1ccc(O)c(-c2cc(CC=C)ccc2O)c1	-10	nt	1	-3	21	1	20	i
COc1cc(CNCCc2c[nH]c3ccccc23)ccc1OCc1ccccc1F	+	nt	5	4	-5	2	-3	i
Cc1cc(OCC(=O)NCCO)cc(C)c1Cl	2	nt	3	0	-8	-5	-2	i
Cn1nnnc1SC1CC(=O)N(c2ccccc2)C1=O (stereo not given)	-8	11	1	-1	8	nt	14	i
c1ccc2c(c1)nc1n2CCN1CCNC1CCCCC1	0	nt	4	5	-5	-15	3	i
Cc1cc(C(F)(F)F)nn1CC(=O)NCc1ccco1	2	9	-4	3	19	4	4	i
COCCn1c(SCC(=O)Nc2cccc(OC)c2)nnc1-c1ccc(Cl)cc1	2	nt	4	-5	-1	1	-24	i
Cc1sc2ncnc(Sc3ccccc3C(=O)Nc3ccccc3Cl)c2c1C	9	13	0	0	-12	nt	-18	i
Cc1onc(-c2c(Cl)cccc2Cl)c1C(=O)Nc1ccc(Cl)cn1	5	11	-11	-7	2	nt	0	i
CCCCNC(=O)O[C@H]1C[C@@H]2CCN3C(=O)CCC[C@H]([C@H]1CC)[C@H]23	-7	6	2	6	4	-1	3	i
COc1ccc(C(=O)NCC(=O)N/N=C/c2c(C)[nH]c3ccccc23)cc1	29	4	1	-2	1	-9	-6	i
Cc1cc(C)cc(NC(=O)c2ccccc2NC(=O)CCC(=O)O)c1	-4	-10	-2	1	-5	-4	11	i
O=C(c1ccc(F)cc1)C1CCN(C(=S)Nc2ccccc2)CC1	-8	nt	4	-2	-14	-15	-7	i
Cc1c(C(=O)N2CCN(c3ccc(F)cc3)CC2)sc2nc(-c3ccccc3)cn12	-3	-23	12	-7	-4	-17	-4	i
O=C(Cc1cccc(NC(=O)C2CCCN(C(=O)C3CCC3)C2)c1)Nc1cccc(C(=O)N2CCCCC2)c1 (stereo not given)	nt	-3	0	0	nt	14	nt	nt
Cc1ccc(NC(=O)c2ccc([N+](=O)[O-])o2)c(C)c1	19	-12	0	-2	-2	-11	-2	i
O=C(Cn1nnc(-c2cccc(C(F)(F)F)c2)n1)NNS(=O)(=O)c1cccc(C(F)(F)F)c1	3	12	6	-3	0	-6	-14	nt
Cc1ccccc1NC(=O)c1ccc(S(=O)(=O)N(C)C)cc1	-2	1	-1	4	5	-7	-4	i
Cc1ccc(S(=O)(=O)c2nc(-c3cccs3)oc2NCc2cccnc2)cc1	6	45	-5	-5	-2	-23	-8	i
Cc1cccc(Cn2c(=O)c3c(nc4n3CCN4Cc3ccco3)n(C)c2=O)c1	-5	34	7	-1	1	-17	-3	i
CCc1nc(SCCO)c2oc3ccccc3c2n1	11	nt	2	-2	-1	-14	5	i
Cc1cc(S(=O)(=O)N2CCCCC2)c(C)s1	-2	-4	2	2	-12	-20	-3	i
CCN(CC(=O)Nc1ccc2c(c1)OCCO2)C(=O)/C=C/c1ccc(F)cc1	1	-24	2	3	6	-9	6	i
COCCNC(=O)c1ccc(N2CCC3(CC2)OCCO3)c([N+](=O)[O-])c1	-10	-27	-3	-2	-4	nt	-3	i
Cc1nn(C)c(C)c1S(=O)(=O)N(CC(=O)Nc1nccs1)c1ccc(C(C)C)cc1	nt	23	-3	2	3	-9	-4	i
COc1ccc2oc3cc(C)[n+]([O-])c(-c4ccc(Cl)cc4)c3c2c1	-5	nt	-4	-30	-3	9	2	i
Cc1cccc(-n2[nH]c3c4c(ccc3c2=O)C(=O)c2ccccc2C4=O)c1	48	-7	6	1	-4	nt	-5	i
COc1cc(NC(=O)c2cccs2)c(OC)cc1NC(=O)Nc1ccc(F)cc1	-7	19	6	1	5	-9	1	i
Cc1ccc(C2=CC(c3ccc(N(C)C)cc3)n3nnnc3N2)cc1 (stereo not given)	1	-33	-112	-15	-5	-6	2	i
COc1ccc(OCC(=O)NNC(=O)C(=O)Nc2ccccc2)cc1	-2	nt	-1	5	nt	-20	nt	nt
CN(C)c1cccc(C(=O)NCC(c2ccco2)N(C)C)c1 (stereo not given)	nt	-12	-2	2	-5	-18	0	i
COc1cccc(CNC(=O)Cc2ccc(Br)cc2)c1	-5	-7	4	3	-3	1	1	i
CCNC(=S)Nc1ccc2c(c1)c(=O)n(C)n2-c1cc(C)cc(C)c1	nt	-5	2	4	nt	-29	nt	nt
COCCNC(=O)c1cccc(OC2CCN(Cc3ccccc3C)CC2)c1	8	2	0	2	-4	1	2	i
O=C(c1cnccn1)N(c1ccccc1)C1(C(=O)NC2CCCC2)CCCCC1	-6	nt	14	1	-6	13	-16	i
Cc1cc(C(=O)CCC(=O)N(C)CC2COc3ccccc3O2)c(C)s1 (stereo not given)	nt	-2	-3	0	nt	12	nt	nt
CC1CC(C)CN(S(=O)(=O)c2ccc(NC(=O)c3ccc(=O)[nH]c3)cc2)C1 (stereo not given)	42	nt	1	-5	nt	-10	nt	nt
CCOc1cc2[nH]c(=O)n(CC3CCC(C(=O)NCCCOC)CC3)c(=O)c2cc1OCC (stereo not given)	-11	-12	3	0	0	nt	6	i

Random excerpt: 2 records from the list.
SMILES	CSC inhib	HIV Env fusion	MT1-MMP act inh	MT1-MMP act inh RFP	eIF4H FP inh	Yeast UUG start	PABP FP inh	Rce1 inhib
O=C(c1cnccn1)N(c1ccccc1)C1(C(=O)NC2CCCC2)CCCCC1	-6	nt	14	1	-6	13	-16	i
COc1cccc(CNC(=O)Cc2ccc(Br)cc2)c1	-5	-7	4	3	-3	1	1	i

Later entries:
SMILES	CSC inhib	HIV Env fusion	MT1-MMP act inh	MT1-MMP act inh RFP	eIF4H FP inh	Yeast UUG start	PABP FP inh	Rce1 inhib
O=S(=O)(c1ccc(Cl)cc1)N1CCN=C1SCc1cccnc1	-12	4	-1	3	9	nt	-12	i
O=C(CSC1=NCCN1)Nc1cccc([N+](=O)[O-])c1	nt	3	7	1	-9	-13	-1	i
CCSc1nnc(NC(=O)C2CCN(C(=O)c3ccc(F)cc3)CC2)s1	0	-10	1	-3	nt	11	nt	nt
C[C@@H]1CN([C@H](C)CO)C(=O)CCCn2nncc2CO[C@H]1CN(C)Cc1cccc(C(=O)O)c1	nt	-2	-3	3	nt	-13&19	nt	nt
Nc1nc(SCC(=O)c2ccc(Oc3ccccc3)cc2)n[nH]1	-14	nt	3	1	-13	-28	-2	i
O=C(CN1CCN(c2ccc(F)cc2)CC1)Nc1cccc(C(F)(F)F)c1	13	nt	2	1	-2	-9	-7	i
Cc1cccc(N2CCN(C(=O)CCS(=O)(=O)c3ccc4c(c3)NC(=O)CO4)CC2)c1C	4	-4	1	-17	-8	17	-3	i
COC(=O)N1CC(c2ccccc2)CC1=O (stereo not given)	-2	nt	-1	1	10	nt	-4	i
Cc1cccn2c(=O)c(C=NCc3ccco3)c(Nc3ccc(SC(F)F)cc3)nc12	-3	-41	0	5	-8	-20	-8	i
CCN1CCc2c(C#N)c(NCc3ccccc3)nc(NCCO)c2C1	-5	-88	-6	-1	nt	-13	nt	i
c1ccc(-c2sc3ccccc3c2-c2ccc(OCCN3CCCCC3)cc2)cc1	71	12	3	0	nt	-6	nt	nt
C[C@H](CO)N1C[C@H](C)[C@@H](CN(C)S(=O)(=O)c2cccs2)Oc2c(NS(=O)(=O)c3ccc(F)cc3)cccc2C1=O	nt	-63	-1	-6	nt	14	nt	nt

Overlap with the part before: 5 compounds, followed by the next part.
SMILES	CSC inhib	HIV Env fusion	MT1-MMP act inh	MT1-MMP act inh RFP	eIF4H FP inh	Yeast UUG start	PABP FP inh	Rce1 inhib
COC(=O)N1CC(c2ccccc2)CC1=O (stereo not given)	-2	nt	-1	1	10	nt	-4	i
Cc1cccn2c(=O)c(C=NCc3ccco3)c(Nc3ccc(SC(F)F)cc3)nc12	-3	-41	0	5	-8	-20	-8	i
CCN1CCc2c(C#N)c(NCc3ccccc3)nc(NCCO)c2C1	-5	-88	-6	-1	nt	-13	nt	i
c1ccc(-c2sc3ccccc3c2-c2ccc(OCCN3CCCCC3)cc2)cc1	71	12	3	0	nt	-6	nt	nt
C[C@H](CO)N1C[C@H](C)[C@@H](CN(C)S(=O)(=O)c2cccs2)Oc2c(NS(=O)(=O)c3ccc(F)cc3)cccc2C1=O	nt	-63	-1	-6	nt	14	nt	nt
CC(=O)Nc1cc2c(cc1NC(=O)Cn1nc(-c3ccccc3F)ccc1=O)OCCO2	-7	-20	-1	-4	2	8	1	i
CN(C)c1ccc(C=C2C(=O)OC(C)(C(C)(C)C)OC2=O)cc1 (stereo not given)	-12	nt	-6	-6	6	1	5	i
Cc1ccc(NC(=S)N/N=C/c2c(Cl)cccc2Cl)c(C)c1	101*	-24	0	-12	14	nt	-1	i
O=C(NNC(=O)c1ccc(NC(=O)c2ccccc2)cc1)c1ccc(F)cc1	-12	-123	-2	1	14	-7	8	i
CC(=O)Nc1ccc(-c2nn[nH]n2)cc1Cl	-13	-17	0	1	-6	-28	6	i
